From PubChem
Menin MLL FP FL: qHTS Assay for Inhibitors Targeting the Menin-MLL Interaction in MLL Related Leukemias: Competition With Fluorescein Labeled MLL-derived Peptide. Fluorescence polarization, fluorescein-MLL peptide displacement from menin. FP activity change, % at 61.4 µM. 290,000 tested, under 10 active; inconclusive = falling polarisation curve, or a change in total fluorescence; inactive = total fluorescence flat and polarisation flat or rising; no compound was filed as active; the % refers to the polarisation; negative = inhibition;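 also: % of control where 0% means no effect; inhibitors lower the polarisation; unlabelled MLL peptide was the positive control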
Sfp PPTase inh: qHTS Assay for Inhibitors of Bacillus subtilis Sfp phosphopantetheinyl transferase (PPTase). actives 3.5% (n = 310,000). AID 1490, 2009. Potency, µM, without a hit: max response, negative = inhibition, actives largely listed as inhibitors. Biochemical Sfp PPTase activity, qHTS. 4'-phosphopantetheinyl transferase ffp (Bacillus subtilis), Q9F4F7; active = well fitted inhibition curve with a large enough effect; inconclusive = small, poorly fitted or top-dose-only effect, or another doubt; inactive = no such curve, though single readings can be large or run the other way;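 also: the enzyme is Sfp with the accession as filed and its product quenches rhodamine fluorescence; potency is read from the fitted curve at half-maximal effect; 0% = enzyme reaction without inhibitor and -100% = no enzyme wells; top concentration of the series not given in the record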
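With Hepes-Na pH 7.6 buffer containing 10 mM MgCl2, Sfp (15 nM) modified BHQ-2-YbbR (12.5 uM) using rhodamine-CoA (5 uM). Two reads 30 minutes apart at 525/598 nm yielded each well's rate.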
TRPML1 blocker: qHTS for Inhibitors of the Human Mucolipin Transient Receptor Potential 1 (TRPML1) | actives 0.02% (n = 390,000) | Mucolipin-1 (Homo sapiens), Q9GZU1 | AID 624415, 2012 | TRPML1-inducible cells, Ca2+ dye fluorescence, FDSS; hits give low values; inhibition of EC80 agonist-evoked calcium signal | activity change, negative = inhibition, % (test concentration not listed); in the data active means activity change below about -50%; inconclusive means about -30% to -50%; inactive means above about -30%;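 also: stimulus is agonist 54-4 at its EC80 concentration; % is scaled to controls: 0 for no effect and ±100 for the full control effect; compound concentration not given in the record; the text of the record puts the active cut at -80%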
Target sequence (Q9GZU1 whole entry, looked up): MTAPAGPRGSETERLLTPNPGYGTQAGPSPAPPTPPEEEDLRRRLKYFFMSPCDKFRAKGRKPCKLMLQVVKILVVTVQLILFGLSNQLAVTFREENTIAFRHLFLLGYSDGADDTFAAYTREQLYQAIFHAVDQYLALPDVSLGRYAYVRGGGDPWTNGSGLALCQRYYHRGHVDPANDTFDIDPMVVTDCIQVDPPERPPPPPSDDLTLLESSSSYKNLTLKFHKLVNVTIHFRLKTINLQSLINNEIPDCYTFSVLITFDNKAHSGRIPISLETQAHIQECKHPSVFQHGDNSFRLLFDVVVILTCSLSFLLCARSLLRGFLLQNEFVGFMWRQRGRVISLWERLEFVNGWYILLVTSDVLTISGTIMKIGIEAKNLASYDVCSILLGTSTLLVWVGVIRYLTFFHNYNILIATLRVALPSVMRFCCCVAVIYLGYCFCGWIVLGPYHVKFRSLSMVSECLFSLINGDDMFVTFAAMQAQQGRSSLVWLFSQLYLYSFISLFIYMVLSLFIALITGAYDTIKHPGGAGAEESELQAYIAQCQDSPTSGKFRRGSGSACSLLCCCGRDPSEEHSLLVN
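Tet-induced TRPML1-DL cells loaded with Ca8 no-wash calcium dye were read kinetically on FDSS. Compound addition was followed by EC80 agonist 54-4 (4 uM final); inhibition was read over 110 s.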
gsp antag: qHTS for Antagonists of gsp, the Etiologic Mutation Responsible for Fibrous Dysplasia/McCune-Albright Syndrome: qHTS | gsp-mutant cells, cAMP HTRF, 30 min; control for the full effect not named in the record | Potency, µM (titrated, usually from 76.9 µM), without a hit: at the highest dose activity change, negative = inhibition, actives largely listed as inhibitors | actives 0.4% (n = 340,000) | AID 624288, 2012; active = falling curve of any shape with a large fitted effect; inconclusive = falling curve, mostly with a smaller effect; inactive = flat or rising curve; cell line not stated here;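 also: intracellular cAMP measured with PDE inhibitor Ro 20-1724 present during compound exposure; potency is read from the fitted curve at half-maximal effect; % is scaled to controls: 0 for no effect and ±100 for the full control effect; nearly all actives have a fitted effect of over 65% in size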
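Measurement of cellular cAMP by homogeneous time-resolved fluorescence following a 30 min compound exposure at 37C. The PDE inhibitor […] was present throughout; the assay buffer was DPBS with 0.05% BSA and 0.005% Tween 20.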
ClpP mod: qHTS Assay for Activators of ClpP. purified B. subtilis ClpP, FRET peptide cleavage, 20 min. actives 1.9% (n = 340,000). AID 651965, 2013. Potency, µM (titrated, usually from 57.5 µM), without a hit: at the highest dose activity change, negative = active. ATP-dependent Clp protease proteolytic subunit (Bacillus subtilis (strain 168)), P80244; active = well fitted falling curve with a large enough effect; inconclusive = small, poorly fitted or top-dose-only effect; inactive = no such curve, though single readings can be large or run the other way; also: potency is read from the fitted curve at half-maximal effect; the source files actives as falling curves though it sought activators and does not explain the sign; nearly all actives have a fitted effect of over 65% in size; many hits overshoot -100%
Target sequence (P80244 whole entry, looked up): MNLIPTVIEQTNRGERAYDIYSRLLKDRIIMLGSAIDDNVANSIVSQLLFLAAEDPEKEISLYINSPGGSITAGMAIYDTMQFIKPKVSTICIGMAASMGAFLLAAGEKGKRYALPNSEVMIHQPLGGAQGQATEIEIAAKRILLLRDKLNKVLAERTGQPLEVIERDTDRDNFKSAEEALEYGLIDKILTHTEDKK
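Purified B. subtilis ClpP, 10 microg/mL final in Tris/HCl pH8 with KCl, BSA, glycerol and Tween-20, cleaved an Abz/nitrotyrosine-quenched decapeptide. Fluorescence (ex 320, em 430) was read at 0 and 20 min at room temperature. Delta was normalized to 5.8 microM ADEP and DMSO/no-enzyme controls.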
TRPV1 potentiator: HTS Assay for Compounds that Act as Potentiators of the Vanilloid Receptor 1; TRPV1-expressing cells, Fluo-8 calcium influx, capsaicin EC20 potentiation; host cell line not named in the record; control for the full effect not named in the record; AID 540277, 2011; actives 0.02% (n = 320,000); potentiation, % at 8.33 µM; active means potentiation above 80%; inconclusive means 30% to 80%; inactive means below 30%; also: 0% is about no effect
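Fluo-8 calcium influx in TRPV1-expressing cells, kinetic read (ex 480/em 520 nm). Compound added and read 3 min for agonist activity, followed by capsaicin at EC20 final and 2 min further read for enhancement.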
gsp agonist: qHTS for Agonist of gsp, the Etiologic Mutation Responsible for Fibrous Dysplasia/McCune-Albright Syndrome: qHTS; Potency, µM (titrated, usually from 76.9 µM), inactives show at the highest dose activation (cAMP increase), most hits filed as activators; actives 0.13% (n = 340,000); gsp mutant cells, cAMP HTRF, 30 min; control for the full effect not named in the record; active = well fitted activation curve with a large enough effect; inconclusive = small, poorly fitted or top-dose-only effect, or another doubt; inactive = no such curve, though single readings can be large or run the other way; cell line not stated here;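 also: phosphodiesterase inhibitor Ro 20-1724 added with compounds to block cAMP breakdown; potency is read from the fitted curve at half-maximal effect; nearly all actives have a fitted effect of over 60% in size; about a fifth of the inactives were tested at one dose only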
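Cells in DMEM/10% FBS with G418 were pretreated with compounds in DMSO plus […] (300 uM stock) for 30 min at 37C. cAMP was measured by HTRF (cAMP-d2 plus anti-cAMP antibody-K) after 30 min at room temperature.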
Numbers without * were called inactive; u = inconclusive; x = no result given; [ ] = dose if it differs, or a comment. Outcome played no part in choosing rows, and some 4.9% of all compounds hit somewhere here.

SMILES	Menin MLL FP FL	Sfp PPTase inh	TRPML1 blocker	gsp antag	ClpP mod	TRPV1 potentiator	gsp agonist
COc1cc([N+](=O)[O-])ccc1NC(=O)/C=C\C(=O)O	2.4	22.7%	-6.0	1.3%	-3.1%	-3.0	-41.0%[inhibitor]
COC(=O)CCC(=O)c1oc2ccc(Br)cc2c1N	1.3	1.7%	-6.6	-1.7%	u	2.4	-18.4%
O=[N+]([O-])c1cccc(/C=N/Nc2ccccn2)c1	-2.9	19.3%	-2.9	4.7%	-3.3%	4.5	u
COC(=O)C1CCN(C(=O)c2ccc(OC)c(S(=O)(=O)N3CCCc4ccccc43)c2)CC1	x	x	-21.0	-24.3%	-4.0%	x	2.5%
CCCN=C(C)C1=C(O)c2ccccc2C1=O	0.6	6.5%	-3.1	-3.9%	x	0.7	5.5%
Cc1ccsc1C(=O)OCC(=O)N1CC(C)CC(C)C1 (stereo not drawn)	x	x	-6.9	1.9%	0.5%	x	-5.8%
CC1CC(NC(=S)N(C)C)CC(C)(C)C1 (stereo not drawn)	x	x	6.2	x	1.5%	x	-2.0%
O=C(C1=C[C@H](C2CC2)C[C@H](OCCCCO)O1)N1CCOCC1	0.4	-7.5%	16.0	8.7%	-3.9%	17.4	6.8%
Cc1cc(C(=O)CC#N)c(C)n1-c1ccc(OC(F)F)cc1	-0.2	7.0%	-12.8	-33.0%	0.4%	4.9	-5.9%
Cc1c(N=Cc2ccco2)c(=O)n(-c2ccccc2)n1C	4.3	-5.5%	44.0	2.3%	-1.7%	19.7	-2.3%
Cc1ccccc1OCCN1CCC(Cc2ccccc2)CC1	-3.9	-15.9%	-7.9	9.5%	-1.9%	2.3	-17.8%
Cc1cc(C(=O)COC(=O)Cc2n[nH]c(=O)c3ccccc23)c(C)n1-c1ccc2c(c1)OCO2	-3.0	10.3%	-7.2	-25.5%	0.9%	10.8	-33.1%[inhibitor]
COc1cccc(NS(=O)(=O)c2nc3nc(C)cc(C)n3n2)c1	-0.9	0.1%	-2.4	4.1%	-1.0%	x	u
Cc1cc[n+](-c2ccccc2)c2ccccc12	3.5	9.0%	16.8	-4.9%	x	19.5	u
C[C@H](CO)N1C[C@H](C)[C@@H](CN(C)S(=O)(=O)c2cccs2)Oc2ccc(NC(=O)c3ccncc3)cc2C1=O	x	x	19.9	-3.3%	1.4%	x	x
CC1CCN(C(=O)Cn2ncc3c4ccccc4n(C)c3c2=O)CC1	3.5	3.9%	-6.4	4.1%	x	-3.4	-12.2%[15.4 µM]
COC(=O)COc1c(/C=C\c2nc(O)c([N+](=O)[O-])c(=O)[nH]2)cccc1OC	-0.7	10.7%	15.5	6.0%	1.5%	22.1	22.0%
O=C(NC(=S)N1CCN(c2ccccc2)CC1)c1ccco1	x	x	-10.9	-17.2%	0.4%	x	0.1%[15.4 µM]
C[C@@H]1CN([C@H](C)CO)C(=O)CCCn2nncc2CO[C@H]1CN(C)Cc1ccc2cccnc2c1	x	x	-5.1	x	-2.7%	x	u
COC(=O)c1onc(-c2c(Cl)cccc2Cl)c1C(=O)OC	1.7	3.4%	14.3	u	x	-0.9	-7.2%[15.4 µM]
O=C(NCc1ccco1)c1cc(-c2ccccc2)c(N2CCOCC2)s1	-0.5	-2.4%	2.5	-11.1%	-5.7%	-3.8	0.0%
O=C(Nc1ccc(Nc2ccccc2)cc1)c1ccccc1F	3.1	-6.5%	-0.6	-10.4%	x	-2.2	-16.8%
CCCCCCSc1ccc([C@@H]2[C@H]3C(=O)N(C)C(=O)[C@H]3[C@]3(C(=O)OC)CCCCN23)cc1	x	x	9.0	-0.5%	-2.6%	u	x
C=CCC[C@@H](Cc1ccc(F)cc1)C(=O)OCCNC(=O)[C@H](CC=C)CC(=O)NCCO	x	x	14.6	4.3%	3.0%	x	x
O=S1(=O)CCN(Cc2cccc(C(F)(F)F)c2)CC1	-0.1	1.9%	26.3	x	x	-9.2	-16.0%[15.4 µM]
COc1cccc(CNC(=O)c2ccc(C3SCCS3)cc2)c1	x	11.1%	-4.2	-4.3%	0.4%	-13.3	3.5%
COc1cc(CC(=O)OCC(=O)Nc2ccccc2C#N)cc(OC)c1OC	x	x	-8.1	-5.5%	-2.5%	1.8	27.4%
CC1(c2nnc(Cc3ccccc3)o2)CC(c2cccc(Cl)c2)=NO1 (stereo not drawn)	5.3	-5.3%	-6.0	-6.8%	0.5%	u	x
O=C(NCCc1ccc(F)cc1)c1ccc(Cl)c(S(=O)(=O)N2CCOCC2)c1	x	x	0.9	-11.0%	0.3%	-8.2	u
Cc1cccc(NC(=S)c2nc3ccccc3s2)c1	1.5	1.6%	45.3	-22.1%	1.1%	4.9	-23.2%
O=C(Cc1cccs1)N(Cc1cccs1)C1(C(=O)NC2CCCCC2)CCCCC1	1.6	4.5%	1.6	u	0.0%	-13.7	-26.2%
COc1ccc(NC(=O)N2CCCC(c3nc(-c4ccc(F)cc4)no3)C2)cc1 (stereo not drawn)	-4.1	-2.7%	-19.7	-17.7%	1.7%	-20.9	-31.2%[inhibitor]
Cn1c(=O)oc2cc(S(=O)(=O)N3CCCCC3)ccc21	-6.6	12.5%	9.9	5.0%	-0.3%	-10.4	4.3%
Cc1[nH]c2ccccc2c1/C=N/NC(=O)c1cccc(F)c1	-4.6	-3.0%	11.6	-0.8%	-3.0%	-5.8	u
CN1C(=O)NC(c2ccccc2)C2=C1CN(Cc1ccco1)C2=O (stereo not drawn)	2.3	u	-4.1	6.0%	-3.9%	6.6	-20.8%
CCOC(=O)C1C(=O)CC(C)(O)C(C(=O)OCC)C1c1ccc(NC(C)=O)cc1 (stereo not drawn)	1.2	5.9%	4.4	4.5%	x	3.3	-1.4%[15.4 µM]

2 entries picked at random from those above, as already listed:
SMILES	Menin MLL FP FL	Sfp PPTase inh	TRPML1 blocker	gsp antag	ClpP mod	TRPV1 potentiator	gsp agonist
Cc1cc[n+](-c2ccccc2)c2ccccc12	3.5	9.0%	16.8	-4.9%	x	19.5	u
COC(=O)C1CCN(C(=O)c2ccc(OC)c(S(=O)(=O)N3CCCc4ccccc43)c2)CC1	x	x	-21.0	-24.3%	-4.0%	x	2.5%

The listing continues:
SMILES	Menin MLL FP FL	Sfp PPTase inh	TRPML1 blocker	gsp antag	ClpP mod	TRPV1 potentiator	gsp agonist
CCN(CC)C(=O)C1=C(C)N(CCCOC)C(=O)C(CC(=O)NCCc2ccccn2)C1 (stereo not drawn)	x	x	8.8	x	-3.0%	x	3.4%
CC(C)CN1C(=O)c2ccc(NC(=O)Cc3ccccc3)cc2C1=O	3.4	-8.7%	13.1	7.1%	-29.1%	7.1	25.2%
CC(Sc1nnnn1C)C(=O)Nc1nc(-c2ccc(F)c(F)c2)cs1 (stereo not drawn)	x	x	-4.8	-22.9%	0.6%	6.9	-60.0%[inhibitor]
COC(=O)c1ccc(CSc2ncnc3c2oc2ccccc23)o1	-0.9	-0.7%	51.8	9.2%	-4.1%	4.7	u
CCN(CC)CCNC(=O)c1ccc(-n2c(C)cc3c2CCCC3=O)cc1	-6.7	16.8%	1.0	3.5%	x	-2.4	-2.6%
COc1ccc(-c2nc(C3CCCCC3)c3cc(OC)ccc3n2)cc1	x	x	-2.2	7.3%	3.9%	-14.1	20.3%
C[C@H]1CN([C@@H](C)CO)C(=O)c2cc(C#CC3CCCC3)cnc2O[C@H]1CN(C)C(=O)Cc1ccccn1	x	x	13.1	x	-5.7%	x	14.4%
CC1CCCCN1C(=O)CCn1c(=O)oc2ccccc21 (stereo not drawn)	x	7.0%	-2.3	3.3%	2.0%	-0.3	1.0%
CCc1ccc(CN2CCCC(C(=O)Nc3ccc(-c4cscn4)cc3)C2)o1 (stereo not drawn)	x	-9.6%	25.7	19.6%	1.1%	-6.5	-39.0%
COc1ccc(-c2cc(-c3ccccc3)c(C#N)c(S(C)=O)n2)cc1 (stereo not drawn)	0.1	4.7%	0.8	-11.4%	u	-5.2	-0.3%
COc1ccc2cc3cc(C(=O)NC4CC4)sc3nc2c1	-4.0	8.6%	0.2	u	3.8%	-7.3	u
Cc1ccc(N/N=C/c2c(O)cc(C)oc2=O)cc1	4.2	56.2µM*	-21.0	-18.5%	4.1%	5.5	7.8%
O=C(O)C1(NS(=O)(=O)c2ccc(F)c(Cl)c2)CCCCC1	2.6	33.5%[activator]	10.0	-2.3%	-0.7%	4.2	-8.8%
O=C(/C=C/c1ccccc1Cl)NCc1cccs1	1.8	-8.8%	13.2	-9.1%	-1.0%	-23.3	-3.7%
CCc1ccc(NC(=O)C(=O)NCCN2CCN(Cc3ccc([N+](=O)[O-])cc3)CC2)cc1	3.6	-16.2%	-2.6	10.3%	u	-3.1	u
CC(C(=O)NCc1ccco1)n1cc([N+](=O)[O-])cn1 (stereo not drawn)	1.4	8.2%	-2.7	10.9%	x	0.4	-18.2%[15.4 µM]

Complete entries as entered above:
Shown for COc1ccc2cc3cc(C(=O)NC4CC4)sc3nc2c1 : Menin MLL FP FL = -4.0; Sfp PPTase inh = 8.6%; TRPML1 blocker = 0.2; gsp antag = u; ClpP mod = 3.8%; TRPV1 potentiator = -7.3; gsp agonist = u
Shown for CC1(c2nnc(Cc3ccccc3)o2)CC(c2cccc(Cl)c2)=NO1 (stereo not drawn) : Menin MLL FP FL = 5.3; Sfp PPTase inh = -5.3%; TRPML1 blocker = -6.0; gsp antag = -6.8%; ClpP mod = 0.5%; TRPV1 potentiator = u; gsp agonist = x
